# 2A firefly: lowers the firefly signal of an FMDV 2A StopGo reporter. HEK cells with a luciferase reporter of 2A StopGo recoding. Potency, µM (highest dose often 57.5 µM), for inactives: top-dose signal change, negative = less light. hit rate 0.23% among 120,000. AID 1745856; active = well fitted falling curve with a large enough effect; inconclusive = small, poorly fitted or top-dose-only effect; inactive = no such curve, though single readings can be large or run the other way; further: nearly all actives have a fitted effect of over 60% in size; overnight with compound
# 2A Renilla: FMDV 2A StopGo reporter, Renilla signal; HEK cells with a luciferase reporter of 2A StopGo recoding; Potency, µM (doses to about 57.5 µM), without a hit: top-dose signal change, negative = less light; hit rate 0.32% among 120,000; AID 1745857; active means well fitted falling curve with a large enough effect; inconclusive means small, poorly fitted or top-dose-only effect; inactive means no such curve, though single readings can be large or run the other way; further: nearly all actives have a fitted effect of over 55% in size; overnight with compound
# * marks the source's active call; other numbers are inactive results; ? = inconclusive; & = joins results of further samples; [ ] = another dose, or the depositor's remark. On the % scale 0 is the no-effect control and ±100 the full control effect; potency means the concentration at half of the fitted maximal effect.
[1] CC(C)C(CNC(=O)c1cc(-c2ccncc2)nc2ccccc12)N(C)C (stereo not drawn)
[2] CC(OC(=O)c1cc(-c2ccco2)nc2ccccc12)C(=O)NC(=O)NC(C)(C)C (stereo not drawn)
[3] O=C(Nc1ccncc1)c1cc(-c2cccs2)nc2ccccc12
[4] Cc1cccc(Nc2ccccc2C(=O)O)c1C
[5] CCN(Cc1cc2ccccc2[nH]c1=O)S(C)(=O)=O
[6] CCOCCCn1c(SCC(=O)Nc2ccc(C(C)C)cc2)nc2c(sc3ccccc32)c1=O
[7] COc1ccc(OC)c(-c2noc(N3CCN(c4ccc(Cl)cc4)CC3)n2)c1
[8] CC(=O)OC[C@H]1O[C@@H](n2ncc(=O)[nH]c2=O)[C@H](OC(C)=O)[C@@H]1OC(C)=O
Compound,1,2,3,4,5,6,7,8
2A Renilla,-13%,7%,12%,-5%,9%,-7%,-12%,?
2A firefly,-14%,15%,-9%,-3%,33%,-8%,-11%,?

[9] Cc1oc2cc(OCC(=O)NC(C)C)ccc2c(=O)c1-c1ccc(Cl)cc1
[10] O=C(CNc1ccc(C(F)(F)F)cc1)Nc1cccc(F)c1
[11] Cc1cc(F)ccc1NC(=O)C(C(C)C)N1Cc2ccccc2C1=O (stereo not drawn)
[12] Cn1c(=O)c2c(nc(SCCCc3ccccc3)n2Cc2ccccc2)n(C)c1=O
[13] CCOC(=O)C1=C(CN2CCN(c3ccccc3OC)CC2)NC(=O)NC1c1ccccc1 (stereo not drawn)
[14] O=C(COc1ccc(Br)cc1)Nc1cccc2cccnc12
[15] COc1ccc(S(=O)(=O)Cc2nnnn2-c2ccc(F)cc2)cc1
[16] CC(C)Cn1nc(C(=O)N2CCC(n3c(=O)[nH]c4ccccc43)CC2)c2ccccc2c1=O
Compound,9,10,11,12,13,14,15,16
2A Renilla,-16%,81%[activator],-5%,?,-7%,5%&-1%,10%,61%[activator]
2A firefly,5%,75%[activator],-13%,?,-25%,27%&-15%,-4%,0%

[17] CC(C)Cn1c(SCC(=O)NC(c2ccc(F)cc2)C(C)C)nc2ncccc2c1=O (stereo not drawn)
[18] COc1ccc(OCc2ccc(-c3nc(C#N)c(NCc4ccc(F)cc4)o3)o2)cc1
[19] O=Cc1cccn1-c1ccc(Br)cc1Br
[20] COC(=O)CCN(C(=O)c1c(C)oc2ncnc(N3CCOCC3)c12)c1ccccc1
[21] COc1ccc(-c2ccc(CCC(=O)NC(C)C)o2)cc1
[22] CC(C)=CCC/C(C)=C/CNCC(O)CN1CCOCC1 (stereo not drawn)
[23] COc1ccc(C2(CNC(=O)c3ccccc3)CCCCC2)cc1OC
[24] COc1ccc(-n2c(CC3C(=O)N(C)c4ccc(C)cc43)nc3ccccc3c2=O)cc1 (stereo not drawn)
Compound,17,18,19,20,21,22,23,24
2A Renilla,-5%,-11%,43%[activator],12%,8%,-14%,1%,-5%
2A firefly,-13%,-6%,0%,22%,0%,-14%,-1%,-8%

[25] CC1=CC(=O)C2=C(C)C[C@H](OC(=O)c3ccccc3Br)[C@@H]3[C@H](OC(=O)[C@H]3C)[C@@H]12
[26] O=C(NNC(=S)NCc1ccccc1)c1ccc2ccccc2c1
[27] O=C(COC(=O)c1ccc2ccccc2n1)NCc1ccc(Cl)cc1
[28] COc1ccc(/C=C(\C#N)C(=O)C(C)(C)C)cc1OCc1cccc(C(F)(F)F)c1
[29] Cc1noc(C)c1S(=O)(=O)N(CC(=O)NCCc1ccc(Cl)cc1)c1ccc(C(C)C)cc1
[30] CC(C)OC(=O)C(C(=O)OC(C)C)=C1SC=CS1
[31] Cc1onc(-c2ccccc2)c1-c1nnc(CN(C)CC(=O)N2CCCC2)o1
[32] Cc1c(C(=O)NCc2nnc3n2CCCCC3)oc2ccc(Cl)cc12
Compound,25,26,27,28,29,30,31,32
2A Renilla,?,35%[activator],10%,10%,-9%,8%,-8%,19%
2A firefly,?,0%,-3%,0%,0%,-6%[11.5 µM],-2%,65%[activator]

# Pulled one by one from the entries so far, 2 records:
[26] O=C(NNC(=S)NCc1ccccc1)c1ccc2ccccc2c1
[30] CC(C)OC(=O)C(C(=O)OC(C)C)=C1SC=CS1
Compound,26,30
2A Renilla,35%[activator],8%
2A firefly,0%,-6%[11.5 µM]

# Single records, from the list above:
# CC(=O)OC[C@H]1O[C@@H](n2ncc(=O)[nH]c2=O)[C@H](OC(C)=O)[C@@H]1OC(C)=O is listed as 2A Renilla: ?; 2A firefly: ?
# CC(C)=CCC/C(C)=C/CNCC(O)CN1CCOCC1 (stereo not drawn) is listed as 2A Renilla: -14%; 2A firefly: -14%

# (further entries)
[33] COc1ccc2c(c1)c1c(c(=O)n(Cc3ccccc3)c(=O)n1CC(=O)Nc1ccc(C)cc1C)n2C
[34] CC(C)NC(=O)Cn1c(CO)cnc1SCc1ccccc1Cl
[35] CCCc1nnc(NC(=O)c2cc(=O)c3ccccc3o2)s1
[36] COC(=O)c1ccc2c(=O)[nH]c(CSc3nnc(-c4ccncc4)n3Cc3ccccc3)nc2c1
[37] COc1cccc2cc(-c3cc(=O)oc4ccc(C(C)(C)C)cc34)oc12
[38] CCOc1ccc2nc(NC(=O)c3nc(SCc4ccccc4F)ncc3Cl)sc2c1
[39] CCCCCn1nc(C(=O)NCCN(C)CCOC)c2ccccc2c1=O
[40] Cc1sc2ncnc(NCc3cccs3)c2c1C
Compound,33,34,35,36,37,38,39,40
2A Renilla,-2%,4%,21%&3%,10%,5%,8%,4%,?
2A firefly,-10%,14%,79%&40%[activator],0%,-1%,-13%,-3%,?

[41] O=C(c1cncn1-c1ccc(F)cc1)N1CCCN(S(=O)(=O)c2ccc(F)cc2)CC1
[42] CCc1ccc(NC(=O)CSc2nc3c(sc4ccccc43)c(=O)n2CCCOC(C)C)cc1
[43] COc1ccccc1N1CCN(C(=O)C2CCN(S(=O)(=O)Cc3ccccc3)CC2)CC1
[44] CCN(CC)C(=S)SCc1ccc(C(=O)O)cc1
[45] COC(=O)c1ccc(COc2ccc(C#N)cc2OC)cc1
[46] CCc1ccc(-c2nc(-c3cc4ccccc4oc3=O)sc2C)cc1
[47] Cc1cccc(N2CCN(c3nc4ccccc4c4nnc(C)n34)CC2)c1C
[48] CCOc1ccc(C(C)=O)cc1COc1ccc2c(C)cc(=O)oc2c1
Compound,41,42,43,44,45,46,47,48
2A Renilla,-12%,5%,-10%,52%[activator],16%,-12%,-13%,13%
2A firefly,-10%,-21%,-17%,68%[activator],92%[activator],-15%,-3%,-4%

[49] COc1cccc(-c2nn(C)c3sc(C(=O)NCc4cc(OC)ccc4OC)cc23)c1
[50] CCCCC(CC)CNC(=O)CCNC(=O)c1ccccc1 (stereo not drawn)
[51] Cc1ccc2nc(SCC(=O)Nc3sc4c(c3C#N)CCCC4)[nH]c2c1
[52] CC(=O)Nc1cccc(C(C)NC(=O)NC(c2ccc(Cl)cc2)C(C)C)c1 (stereo not drawn)
[53] COc1cc(C2CC(=O)Nc3nc(N4CCCCC4)sc32)ccc1OCC(N)=O (stereo not drawn)
[54] COc1cc(NC(=O)CN2C(=O)COc3ccc(S(=O)(=O)N4CCCCC4)cc32)cc(OC)c1
[55] Cc1ccc(S(=O)(=O)Nc2cc3c(C(=O)OCc4ccccc4)c(C)oc3c3ccccc23)c(C)c1
[56] CC(C)CC(=O)N1CCC(NC(=O)c2ccc3ccccc3n2)CC1
Compound,49,50,51,52,53,54,55,56
2A Renilla,11%,11%,-7%,-9%,0%,18%,55%[activator],-14%
2A firefly,2%,11%,58%[activator],-18%,19%,-19%,-8%,20%

# A different layout for some results above:
No.	SMILES	2A Renilla	2A firefly
53	COc1cc(C2CC(=O)Nc3nc(N4CCCCC4)sc32)ccc1OCC(N)=O (stereo not drawn)	0%	19%
49	COc1cccc(-c2nn(C)c3sc(C(=O)NCc4cc(OC)ccc4OC)cc23)c1	11%	2%

# More results:
[57] COc1ccc(NS(=O)(=O)c2ccc3oc(SCCOc4ccccc4F)nc3c2)cc1
[58] O=C(N/N=C/c1c(F)c(F)c(F)c(F)c1F)C1CC1
[59] CCOC(=O)c1ccc(NC(=O)C2=C(C)C(=O)OC23CCN(C(C)C)CC3)cc1
[60] COc1cc(C(=O)N(Cc2ccc(F)cc2)Cc2ccco2)cc(OC)c1OC
[61] CC(C)c1ccc(NC(=O)c2c(F)cccc2Cl)cc1
[62] Nc1nccnc1C(=O)NCCNC(=O)c1ccc(Cl)c(Cl)c1
[63] Cc1ccc(C(=O)c2oc3ccccc3c2NC(=O)c2cc(=O)c3ccccc3o2)cc1
[64] CCN1C(SCC(=O)N2CCCC2)=NS(=O)(=O)c2ccccc21
Compound,57,58,59,60,61,62,63,64
2A Renilla,7%,-5%,-20%,21%,26%,0%,-6%,-8%
2A firefly,?,0%,-11%,-21%,141%[activator],16%,-7%,-11%

[65] N#CC1(C(=O)Nc2ccc(Cl)cc2)CCCC1
[66] CCC(C)(C)c1ccc(OCC(=O)Nc2cccc(C(=O)O)c2)cc1
[67] N#CCSc1ccccc1C(=O)Nc1ccc2c(c1)OCCO2
[68] COc1ccc2c(c1)c(CC(=O)Nc1c(C)cccc1C)c(C)n2C(=O)c1ccc(Cl)cc1
[69] Cc1ccc(-c2cc(C(=O)OCC(=O)NC(=O)C3CCCCC3)c3ccccc3n2)o1
[70] COc1ccc(NC(=O)CSc2ncccc2C(=O)O)cc1OC
[71] Cc1ccc(-c2nn(C)c(=O)c3ccccc23)cc1CNC(=O)c1ccc(Cl)cc1
[72] CC(Cc1ccccc1)NCc1ccccc1Cl (stereo not drawn)
Compound,65,66,67,68,69,70,71,72
2A Renilla,15%,3%,10%,-12%,-12%,12%,?,-1%
2A firefly,22%,?,14%,-17%,18%,51%[activator],?,-8%[11.5 µM]

[73] COc1c(C)cc(S(=O)(=O)Nc2cccc(-c3ccc(N4CCOCC4)nn3)c2)c(C)c1C
[74] CCOc1ccccc1NC(=O)CCn1c(-c2ccc(OC)cc2)cc(C(C)=O)c1C
[75] Cc1nc(-c2ccc(F)cc2)sc1CCNC(=O)c1ccco1
[76] Cc1ccc(C(=O)NC(Nc2ccccc2F)C(=O)c2ccccc2)cc1 (stereo not drawn)
[77] CCCCCC1CCC(c2ccc(-c3ccc(OCCC)cc3F)nc2)CC1 (stereo not drawn)
[78] COc1cccc(CNC(=O)CCCn2c(=O)c3cccn3c3ccc(F)cc32)c1OC
[79] CC(C)c1nn2c(=O)cc(COC(=O)c3ccccc3Cl)nc2s1
[80] COC(=O)c1cccc(OCC(C)CN2CCC(C(O)(c3ccccc3)c3ccccc3)CC2)c1 (stereo not drawn)
Compound,73,74,75,76,77,78,79,80
2A Renilla,1%,-15%,39%[activator],165%[activator],-15%[1.06 µM],17%,-11%,-9%
2A firefly,73%[activator],-23%,119%[activator],81%[activator],0%,-8%,20%,-16%

[81] O=C(Nc1ccccc1F)c1cnc(N2CCCCC2)c2ccccc12
[82] O=S(=O)(Nc1nc2ccccc2nc1Nc1cccc(C(F)(F)F)c1)c1cccs1
[83] CC(=O)c1ccc(NC(=O)C2CC3CCCC(C2)C3=O)cc1 (stereo not drawn)
[84] CC(OC(=O)Cc1nn(C)c(=O)c2ccccc12)C(=O)NCc1ccccc1 (stereo not drawn)
[85] COc1ccc(S(=O)(=O)NCC(c2ccco2)N2CCN(c3ccc(F)cc3)CC2)cc1C (stereo not drawn)
[86] CCc1ccc(-n2nc(CO)c(C(=O)NCCCCc3ccccc3)n2)cc1
[87] CCOC(=O)c1cc(S(=O)(=O)Nc2ccc(C)cc2Cl)[nH]n1
[88] Cc1ccc(NC(=O)/C=C/c2ccco2)cc1F
[89] Cc1ccc(C)c(NC(=O)c2cc(S(=O)(=O)NCc3ccccc3)ccc2F)c1
[90] CCOc1ccccc1CNC(=O)C1CCCN(S(=O)(=O)c2ccc3c(ccn3C)c2)C1 (stereo not drawn)
Compound,81,82,83,84,85,86,87,88,89,90
2A Renilla,?,?,2%,-6%,47%[activator],8%,23%,43%[activator],70%[activator],47%[activator]
2A firefly,?,?,0%,-4%,-30%,2%,-10%,185%[activator],5%,-30%

# Quoted from above, compounds 84–89
[84] CC(OC(=O)Cc1nn(C)c(=O)c2ccccc12)C(=O)NCc1ccccc1 (stereo not drawn)
[85] COc1ccc(S(=O)(=O)NCC(c2ccco2)N2CCN(c3ccc(F)cc3)CC2)cc1C (stereo not drawn)
[86] CCc1ccc(-n2nc(CO)c(C(=O)NCCCCc3ccccc3)n2)cc1
[87] CCOC(=O)c1cc(S(=O)(=O)Nc2ccc(C)cc2Cl)[nH]n1
[88] Cc1ccc(NC(=O)/C=C/c2ccco2)cc1F
[89] Cc1ccc(C)c(NC(=O)c2cc(S(=O)(=O)NCc3ccccc3)ccc2F)c1
Compound,84,85,86,87,88,89
2A Renilla,-6%,47%[activator],8%,23%,43%[activator],70%[activator]
2A firefly,-4%,-30%,2%,-10%,185%[activator],5%

# Compound activity as filed in PubChem BioAssay.
